Source: PubChem BioAssay
Bfl-1 A1 inh – inhibitors of the anti-apoptotic protein A1, read as caspase activation. MEF A1-2A-BIM cells, Caspase-Glo 3/7 luminescence, 3 h; percent of clofoctol response, vehicle zero. caspase activation, % (test concentration not listed). 0.066% of 330,000 active;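 active = over half of replicate activation scores above 10%, or exactly half above 10 with the replicate mean above 10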;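 note: wells of about 30 µL received 50 nL stock; many hits fall short of the cut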
Beta apoptosis – beta cell apoptosis inhibition; INS-1E cytokine-induced death, ATP luminescence, 48 h; percent of positive-control rescue, neutral wells zero; protection from apoptosis, % (concentration not given with the values); 0.8% of 300,000 active;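 active = all replicates at 75% or more, or half of them and the mean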;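 note: 0% = cytokine-treated negative control wells and 100% = positive control rescue; higher means more ATP so stronger rescue from cytokine killing; wells of about 40 µL received 100 nL stock; the first replicate is given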
FGF22 binding – FGF22 (human) thermal shift binding | recombinant FGF22 thermal shift, SYPRO orange fluorescence; percent of sucrose octasulfate shift, DMSO zero | calls only at 9.99 µM | 1.5% of 340,000 active | AID 651658;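 active = melting point raised past a set limit in the mean and every replicate; three in four hits are not shown here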
Target sequence (Q9HCT0 whole entry, looked up): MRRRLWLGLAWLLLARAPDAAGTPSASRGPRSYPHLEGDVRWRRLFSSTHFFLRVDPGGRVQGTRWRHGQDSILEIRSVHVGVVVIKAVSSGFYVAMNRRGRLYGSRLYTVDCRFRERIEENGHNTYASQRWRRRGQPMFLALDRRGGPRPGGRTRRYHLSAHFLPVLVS
T cruzi inh – blocks replication of Trypanosoma cruzi. T. cruzi beta-gal in NIH3T3, luminescence, 90 h. inhibition, % (concentration not given with the values). 1.4% of 300,000 active. AID 1885;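 active = mean inhibition across valid replicates above about 55%, limit read from the data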;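 note: signal also drops with host cell toxicity which is not excluded here; 0% = plate median of DMSO wells and 100% = zero luminescence signal; higher percent means less beta-gal luminescence so fewer parasites; stock transfer was 50 nL into about 50 µL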
Ecoli rRNA inh – inhibits bacterial ribosomal RNA function over humanized ribosomes. E. coli WT GFP vs humanized-ribosome RFP mutants, fluorescence, 24 h; stronger effect = lower value; DMSO median 0, no signal -100. GFP signal change (wild-type ribosome), % (no concentration beside the values). 1.6% of 350,000 active;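 active = significant combined selectivity score with lowered wild-type GFP, culture density cut under 30%, mutant RFP and density less affected; inactive = any of these conditions unmet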; note: one replicate is shown; some compounds called inactive have numbers as strong as hits
MLL AF4-AF9 inh – MLL-AF4/AF9 protein interaction inhibition. P42568. AlphaScreen, biotin-AF4 peptide binding to FLAG-AF9. inhibition, % at 10 µM. 0.47% of 350,000 active. AID 651704;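 active = every replicate reaching a set inhibition limit, whatever the replicate mean, cut at about 25% in these data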;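 note: 0% = plate neutral control median and 100% = total signal loss; the record names both 10 and 1 µM as test concentration; the first replicate is given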
Target sequence (P42568 whole entry, looked up): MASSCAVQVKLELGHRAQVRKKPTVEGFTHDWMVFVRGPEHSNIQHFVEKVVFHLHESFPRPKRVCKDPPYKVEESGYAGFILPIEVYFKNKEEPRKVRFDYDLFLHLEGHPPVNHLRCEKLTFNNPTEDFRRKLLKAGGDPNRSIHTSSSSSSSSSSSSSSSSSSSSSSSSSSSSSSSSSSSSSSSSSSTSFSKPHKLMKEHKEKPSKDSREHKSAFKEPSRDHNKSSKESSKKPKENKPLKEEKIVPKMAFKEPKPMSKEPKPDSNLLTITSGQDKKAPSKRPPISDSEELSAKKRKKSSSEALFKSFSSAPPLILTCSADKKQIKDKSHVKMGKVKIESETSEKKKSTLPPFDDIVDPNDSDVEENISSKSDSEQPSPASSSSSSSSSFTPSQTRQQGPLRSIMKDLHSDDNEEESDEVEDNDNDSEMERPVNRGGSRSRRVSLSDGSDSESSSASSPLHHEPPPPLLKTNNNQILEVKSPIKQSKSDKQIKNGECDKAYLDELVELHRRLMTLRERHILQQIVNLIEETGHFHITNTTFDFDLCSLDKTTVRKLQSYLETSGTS
UCH37 inh – blocks the human deubiquitinase UCH37. purified proteasome/UCH37, Ub-AMC cleavage fluorescence. inhibition, % (test concentration not listed). AID 588478. 0.33% of 330,000 active;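 active = mean of two replicates above 20%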;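 note: 0% = compound-free wells with enzyme and 100% = wells lacking proteasome; stock transfer was 100 nL into about 20 µL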
Target sequence (Q9Y5K5 whole entry, looked up): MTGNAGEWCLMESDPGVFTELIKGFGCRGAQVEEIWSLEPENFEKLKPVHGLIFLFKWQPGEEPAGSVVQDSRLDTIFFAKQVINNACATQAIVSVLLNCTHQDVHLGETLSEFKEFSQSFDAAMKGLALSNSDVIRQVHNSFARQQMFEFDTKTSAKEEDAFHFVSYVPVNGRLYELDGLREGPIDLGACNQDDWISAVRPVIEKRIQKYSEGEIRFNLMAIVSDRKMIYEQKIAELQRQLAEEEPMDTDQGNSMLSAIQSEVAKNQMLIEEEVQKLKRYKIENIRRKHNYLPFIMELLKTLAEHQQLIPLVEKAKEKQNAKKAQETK
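system = Proteasome-associated human UCH37 deubiquitinase | amount = 0.15 nM proteasome as dispensed | medium = pH 7.4 Tris-HCl (50 mM) with ovalbumin, ATP-MgCl2, DTT | incubation = 30 min preincubation with enzyme, 25 min cleavage at room temperature | detection = AMC fluorescence 355/460 nm | read-out basis = percent inhibition | controls = no-proteasome and no-compound wells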
E coli growth – inhibitors of Escherichia coli growth; OD600 absorbance (no concentration beside the values); AID 1053175; OD600, 23 h; stronger effect = lower value; 0.21% of 330,000 active;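 active = OD600 absorbance below the run mean of sample wells minus 3.6 SD, in any replicate, cut at about 0.56 in these data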;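 note: stock transfer was 300 nL into about 60 µL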
Ecoli rRNA inh OD600 – further read-out of Ecoli rRNA inh, marked with its call; OD600 change, %; measured here: OD600 growth;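 optical density of the mix in the first replicate; 0 = DMSO median and -100 = no signal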
Ecoli rRNA inh RFP – recorded beside Ecoli rRNA inh, whose call it bears; RFP signal change, %; measured here: RFP humanized mutant strains;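 first replicate; 0 = DMSO median and -100 = no signal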
The depositor's hits bear a star; i = inactive; · = no result given.

Fields: Ecoli rRNA inh RFP	E coli growth	T cruzi inh	Ecoli rRNA inh	Ecoli rRNA inh OD600	Bfl-1 A1 inh	MLL AF4-AF9 inh	Beta apoptosis	FGF22 binding	UCH37 inh
Cc1ccc(NC2=C/C(=N\S(=O)(=O)c3cccs3)c3ccccc3C2=O)c(C)c1
  ·	0.683	56.8*	·	·	2.3	·	114.3*	·	65.2*
CC1(c2nnc(-c3cccc(Cl)c3)o2)CC(c2ccc(C#N)cc2)=NO1 (stereo not given)
  ·	0.683	-13.2	·	·	0.3	·	-4.8	·	1.1
CC(=O)Nc1ccc(S(=O)(=O)NCC(=O)NNC(=O)COc2c(C)cccc2C)cc1
  4.1	0.681	·	14.2	4.1	-0.7	0.8	0.5	i	0.6
CCCN(Cc1ccccc1)C(=S)Nc1ccc(F)cc1
  -13.3	0.686	-2.5	-22.2	-49.6	0.0	-2.6	-2.7	·	6.3
CCOc1ccccc1NC(=O)Nc1cc(C(=O)O)ccc1C
  2.0	0.64	-17.3	5.7	6.7	-0.6	0.1	0.4	i	2.5
O=C(NCc1nnc(SCc2ccc(C(F)(F)F)cc2)n1-c1ccccc1)C12CC3CC(CC(C3)C1)C2
  15.9	0.699	25.3	2.1	-22.0	-0.2	-8.4	0.8	i	2.1
COC(=O)[C@H](Cc1ccccc1)NC(=O)NCc1ccccc1
  -0.1	0.627	-8.0	4.0	-3.0	1.0	·	-8.5	i	-1.2
Cc1ccc(S(=O)(=O)N2CCN(C(=S)NCCc3ccccc3)CC2)cc1
  1.6	0.64	6.6	10.9	2.8	0.3	0.2	0.4	i	0.9
O=C(Nc1nc(-c2ccccc2)cs1)C1CCCO1 (stereo not given)
  -1.5	0.684	5.0	-7.2	-13.8	-1.6	-1.6	·	i	2.2
Cc1cc(Nc2ccc3c(c2)OCCO3)n2ncnc2n1
  ·	0.661	-1.8	·	·	-0.3	·	1.3	·	4.4

More structures follow:
Fields: Ecoli rRNA inh RFP	E coli growth	T cruzi inh	Ecoli rRNA inh	Ecoli rRNA inh OD600	Bfl-1 A1 inh	MLL AF4-AF9 inh	Beta apoptosis	FGF22 binding	UCH37 inh
Cn1c(SCC(=O)NCc2cccs2)nnc1-c1ccco1
  ·	0.684	-1.8	·	·	0.0	·	-7.5	·	3.2
COc1ccc(NC(=O)CN(C)C(=O)c2ccc(-c3ccccc3Cl)o2)cc1
  -1.2	0.643	-4.5	-1.8	4.8	-0.7	-0.7	-3.5	i	6.0
COc1ccc(C2/C(=C(/O)c3ccc(F)cc3)C(=O)C(=O)N2CCCN(C)C)cc1 (stereo not given)
  2.9	0.672	·	9.5	9.8	·	8.4	·	i	3.1
O=C(c1ccc(F)cc1F)N1CCN(c2ncccn2)CC1
  ·	0.728	0.5	·	·	-0.7	·	-0.9	·	-0.4
OCCSc1nc2ccccc2n1CCOc1ccccc1
  2.3	0.624	0.8	-3.4	-8.3	0.2	6.0	0.3	i	0.7
O=c1nc(-c2ccccc2)n(-c2ccc(Cl)cc2)[nH]1
  ·	0.669	-12.0	·	·	0.6	-0.3	-5.1	i	-9.6
Cn1cnc([N+](=O)[O-])c1SCC(=O)NN
  -1.2	0.694	-3.3	11.8	3.0	0.3	-2.4	-3.4	i	7.5
CCOc1ccc(-n2c(=S)sc3c(=O)[nH]c(SCC(=O)C(C)(C)C)nc32)cc1
  0.4*	0.685	28.0	-28.9*	-19.8*	-0.7	-1.0	17.9	i	9.3
COc1ccc(CN2CCCC(CO)(Cc3ccc(F)cc3)C2)cc1C (stereo not given)
  19.0	0.678	57.8*	-11.9	-27.6	0.2	-9.3	·	i	0.2
COc1ccccc1NC(=O)C1CCN(C(=O)c2ccc(C(C)(C)C)cc2)CC1
  -1.0	0.69	16.8	-3.0	-8.4	0.1	0.2	-2.3	i	0.7

More compounds
Fields: Ecoli rRNA inh RFP	E coli growth	T cruzi inh	Ecoli rRNA inh	Ecoli rRNA inh OD600	Bfl-1 A1 inh	MLL AF4-AF9 inh	Beta apoptosis	FGF22 binding	UCH37 inh
COc1ccc(-c2nc(CN3CCCCC3CCc3ccccn3)c(C)o2)cc1 (stereo not given)
  3.8	0.679	32.0	18.6	2.1	0.1	4.1	0.7	i	-1.8
CC(C)(C)n1nc2c(c1NC(=O)c1cc3ccccc3o1)CSC2
  7.1	0.69	7.2	12.2	11.0	0.9	-1.0	-1.2	·	0.5
COc1cc(-c2nc3ccc4ccccc4c3c3c2CCC3)ccc1O
  5.3	0.68	27.2	-27.1	-21.9	0.1	0.7	1.7	i	-21.3
CC1=CC(C)=Nc2ccccc2N1
  ·	0.695	1.8	·	·	0.2	·	-0.4	·	0.4
CC(=O)Nc1nc(-c2ccccc2)cc(-c2ccco2)c1C#N
  2.8	·	·	11.4	4.1	0.2	-9.9	3.6	i	·
O=C(CN1CCN(c2ccc(F)cc2)CC1)Nc1cc(C(F)(F)F)ccc1Cl
  ·	0.725	13.0	·	·	1.1	·	-1.9	·	1.1
CCn1cc(C(=O)OCC(=O)NCc2ccc3c(c2)OCO3)c(=O)c2ccc(C)nc21
  ·	0.709	8.4	·	·	-0.2	·	-4.1	·	7.6
O=C(O)C1C2C=CC(C3CC23)C1C(=O)N1CCc2ccccc21 (stereo not given)
  ·	0.714	8.5	·	·	0.1	·	3.2	·	0.9
CCCCCCn1c(SCC(=O)OC)nc2c1c(=O)[nH]c(=O)n2C
  -0.5	0.768	-4.2	1.3	0.2	-0.1	-6.6	7.9	i	0.6
COCCCNC(=S)N(CCCO)Cc1cc2cc3c(cc2[nH]c1=O)OCCO3
  3.5	0.67	-3.7	-7.7	-11.7	0.5	-3.4	-6.8	i	-110.8

(listing goes on)
Fields: Ecoli rRNA inh RFP	E coli growth	T cruzi inh	Ecoli rRNA inh	Ecoli rRNA inh OD600	Bfl-1 A1 inh	MLL AF4-AF9 inh	Beta apoptosis	FGF22 binding	UCH37 inh
O=C(NC1CCCC1)C(c1ccccc1F)N(C(=O)c1csnn1)c1ccccc1 (stereo not given)
  -0.6	0.678	-7.4	2.5	1.9	·	-0.5	·	i	0.5
CCN1C(=O)NC(c2cccnc2)C(C(=O)OC)=C1C (stereo not given)
  ·	0.666	-0.4	·	·	0.6	·	-3.0	·	0.9
O=C(c1ccco1)N1CCN(C(=O)C2c3ccccc3Oc3ccccc32)CC1
  -4.4	0.714	9.1	-1.7	-1.9	0.1	2.0	6.2	i	1.3
O=C(Nc1ccccc1N1CCOCC1)c1ccco1
  -1.3	0.699	-2.9	10.8	6.6	0.5	-2.1	-4.3	i	1.0
Cc1cc(NC(=O)CSc2nc(-c3ccc(Cl)cc3)cs2)no1
  5.3	0.691	-2.0	3.1	14.8	0.9	·	-5.0	·	2.2
CCC1CCCCN1C(=S)NC(=O)c1cccc([N+](=O)[O-])c1 (stereo not given)
  -4.4	0.705	-4.8	13.1	7.0	-0.4	-0.4	6.7	i	2.4
O=[N+]([O-])c1cccc(NC(=S)N2CCOCC2)c1
  -1.0	0.7	-4.5	21.4	2.4	0.1	2.1	0.8	i	6.0
O=C(CNC(=O)C(c1ccccc1)c1ccccc1)N/N=C/c1ccc(O)cc1O
  -0.9*	·	23.0	-19.9*	2.6*	-0.3	-5.5	43.8	i	·
CN(C(=O)CCNC(=O)Cn1cnc2ccccc2c1=O)c1ccccc1F
  -3.9	0.589	-3.0	-1.0	-5.8	0.8	2.7	-3.2	i	-0.4
CCCC(=O)C1=C(O)C(C(=O)OC)C(C)(C)CC1=N (stereo not given)
  ·	0.802	-2.2	·	·	-0.7	·	1.8	·	2.0

The last three compounds of the section above open the next one:
Fields: Ecoli rRNA inh RFP	E coli growth	T cruzi inh	Ecoli rRNA inh	Ecoli rRNA inh OD600	Bfl-1 A1 inh	MLL AF4-AF9 inh	Beta apoptosis	FGF22 binding	UCH37 inh
O=C(CNC(=O)C(c1ccccc1)c1ccccc1)N/N=C/c1ccc(O)cc1O
  -0.9*	·	23.0	-19.9*	2.6*	-0.3	-5.5	43.8	i	·
CN(C(=O)CCNC(=O)Cn1cnc2ccccc2c1=O)c1ccccc1F
  -3.9	0.589	-3.0	-1.0	-5.8	0.8	2.7	-3.2	i	-0.4
CCCC(=O)C1=C(O)C(C(=O)OC)C(C)(C)CC1=N (stereo not given)
  ·	0.802	-2.2	·	·	-0.7	·	1.8	·	2.0
Cc1cc(N/C=C\c2nnnn2-c2ccccc2)no1
  ·	0.695	-7.1	·	·	1.7	·	-8.5	·	5.5
CN(c1ccccc1)S(=O)(=O)c1cccc(C(=O)NCCc2c[nH]c3ccccc23)c1
  14.2	0.699	-2.0	-24.7	-40.6	-0.1	5.4	-6.4	i	0.3
COc1ccc(C(=O)NC(=S)NCCO)cc1Br
  -0.3	0.701	-18.7	4.7	1.1	-1.0	5.0	-2.7	i	6.2
C=CCOC(=O)CCC(=O)Nc1cc(OC)nc(OC)n1
  ·	0.702	-10.9	·	·	0.1	·	-5.7	·	2.0
COC(=O)c1ccc(CSc2ccc3nnc(-c4ccc(F)cc4)n3n2)o1
  0.3	0.686	28.9	2.7	-6.7	0.2	-0.2	5.6	i	-1.8
O=C(NNC(=S)Nc1ccccc1Cl)c1ccccc1Cl
  0.2	0.702	-8.4	-25.4	-41.9	-0.6	0.4	7.6	i	0.7
Cc1cccc(N(CC(=O)NC2CCCCC2)C(=O)Cn2nnc(-c3ccc(C)o3)n2)c1
  1.5	0.673	12.3	6.6	0.9	-0.5	-8.5	-14.0	i	-0.6
Cc1cc(C)c2c(N)c(C(=O)Nc3ccc(C)c(C)c3)sc2n1
  -10.7	0.72	17.2	-1.5	1.8	-0.6	-2.3	3.8	i	-231.6
Cc1ccc(NC(=O)C(NC2CCCc3ccccc32)c2ccccc2)c([N+](=O)[O-])c1 (stereo not given)
  ·	0.678	11.2	·	·	-0.9	·	1.7	·	2.7
CC(=O)c1cccc(NC(=O)NC2CCCCCCC2)c1
  -7.5	0.722	1.5	-28.6	-44.3	-0.4	-12.4	2.3	i	4.5

Additional entries follow:
Fields: Ecoli rRNA inh RFP	E coli growth	T cruzi inh	Ecoli rRNA inh	Ecoli rRNA inh OD600	Bfl-1 A1 inh	MLL AF4-AF9 inh	Beta apoptosis	FGF22 binding	UCH37 inh
C/C(=N\NC(=O)c1ccccc1O)c1ccc(Br)s1
  3.8	·	-2.2	-19.2	-11.9	1.7	3.6	·	i	·
CCc1cccc(CC)c1NC(=O)COC(=O)c1ccc(F)c(S(=O)(=O)N(CC)CC)c1
  ·	0.69	-5.9	·	·	-0.4	·	1.9	·	3.5
Cc1ccc(C)c(OCCC(=O)OCC(=O)N2CCN(c3ccccc3)CC2)c1
  -3.1	0.661	1.5	-15.4	-23.4	-0.2	1.3	·	i	2.3
CC1(C)CC(=O)C(=CN2CCOCC2)C(=O)C1
  1.0	0.664	-13.0	11.6	15.8	1.0	-1.5	-3.3	i	0.1
CC(=O)Nc1cccc(NC(=O)COc2ccc3c(c2)CCC3)c1
  -4.2	0.64	·	1.9	-28.2	-1.1	1.6	-0.5	·	1.2
O=C(O)CSc1nnc(-c2ccncc2)n1Cc1ccccc1
  ·	0.795	-10.0	·	·	0.1	·	-1.4	·	-6.3
COc1cccc(CN2CC(C(=O)NCCOc3ccccc3)CCC2=O)c1 (stereo not given)
  2.7	0.682	0.4	2.5	4.2	0.9	-1.8	3.0	i	0.8
COc1ccccc1-c1cc2nc(C)c(CCC(=O)NCc3ccc(F)cc3)c(C)n2n1
  6.6	·	61.3*	-5.6	-6.7	0.4	-2.8	0.2	·	·

Only part of the results is shown; the hit share may differ from the screen's.
